Bioassay records as filed in PubChem BioAssay.
RE007 growth inh – less growth of the S. pombe RE007 Vpr strain; S. pombe RE007 Vpr strain, BacTiter-Glo ATP luminescence, 24 h; control for the full effect not named in the record; Potency, µM (highest dose often 92.2 µM), inactives show at the highest dose activity change, negative = less growth; hit rate 0.21% among 360,000; active = well fitted falling curve with a large enough effect; inconclusive = small, poorly fitted or top-dose-only effect; inactive = no such curve, though single readings can be large or run the other way;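 further: on the % scale 0 is the no-effect control and ±100 the full control effect; nearly all actives have a fitted effect of over 50% in size; the assay follows cell death caused by Vpr and the record does not say whether a fall means rescue or toxicity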
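Fission yeast RE007 carrying one integrated HIV-1 vpr copy, seeded at OD 0.01 in PMG+AL medium with 23 nL pinned compound. Grown 24 h at 30 degrees; viability read by BacTiter-Glo luminescence after 5 min.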
2A StopGo – lowers the luciferase signal of an FMDV 2A StopGo reporter | Potency, µM (titrated, usually from 57.9 µM), for inactives: at the top dose signal change, negative = less light | hit rate 1.2% among 410,000 | human cells with a luciferase reporter of 2A StopGo recoding; control for the full effect not named in the record; active = well fitted falling curve with a large enough effect; inconclusive = small, poorly fitted or top-dose-only effect; inactive = no such curve, though single readings can be large or run the other way; tested in HEK293T cells; further: on the % scale 0 is the no-effect control and ±100 the full control effect; nearly all actives have a fitted effect of over 45% in size; luciferase light after 4 h
NS1 inh – influenza NS1 inhibition | AID 2326 | Potency, µM (series often up to 46.1 µM), without a hit: at the top dose activity, positive = more growth | S. cerevisiae slowed by influenza A NS1, growth recovery by OD600 | hit rate 0.4% among 270,000; active means well fitted rising curve with a large enough effect; inconclusive means small, poorly fitted or top-dose-only effect; inactive means no such curve, though single readings can be large or run the other way; further: nearly all actives have a fitted effect of over 50% in size
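S. cerevisiae expressing influenza A NS1, grown in glucose, washed, then diluted 1:100 into pH 6.0 -URA galactose medium with 23 nl compound. Growth recovery read as OD600; NS1-free strain serves as control.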
Cruzain Triton – inhibitors of Trypanosoma cruzi cruzain with detergent | P25779 | purified cruzain, Z-FR-AMC fluorescence, 0.01% Triton | Potency, µM, for the others: max response, negative = inhibition, usual class: inhibitors | hit rate 0.43% among 200,000 | AID 1478;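 further: plate controls were neutral wells for no effect and buffer without enzyme for full effect; nearly all actives have a fitted effect of over 40% in size; top concentration of the series not given in the record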
Target sequence (P25779 123-467 limits assumed): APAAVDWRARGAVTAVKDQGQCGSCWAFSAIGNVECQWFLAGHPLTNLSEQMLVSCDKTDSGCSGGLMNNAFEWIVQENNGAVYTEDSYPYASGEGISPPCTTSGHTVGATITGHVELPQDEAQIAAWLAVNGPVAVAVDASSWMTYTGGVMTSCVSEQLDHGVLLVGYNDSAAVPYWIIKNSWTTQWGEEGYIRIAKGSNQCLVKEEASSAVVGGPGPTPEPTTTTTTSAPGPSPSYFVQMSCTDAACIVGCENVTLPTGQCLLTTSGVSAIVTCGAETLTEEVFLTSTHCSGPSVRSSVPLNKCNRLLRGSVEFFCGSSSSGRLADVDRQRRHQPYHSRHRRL
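Cruzain (1.5 nM) preincubated 15 min at RT with compound in 100 mM sodium acetate pH 5.5, 5 mM DTT, 0.01% Triton X-100. Reaction started with 2 uM Z-FR-AMC; AMC fluorescence (ex 360/em 450 nm) change over 60 s gave rate.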
Lassa entry inh – inhibitors of Lassa virus binding or cell entry. Lassa virus pseudotype entry inhibition, cell reporter; control for the full effect not named in the record. hit rate 1.2% among 300,000. Potency, µM (doses to about 37.9 µM), for the others: at the highest dose activity change, negative = inhibition, actives largely listed as inhibitors; active means well fitted inhibition curve with a large enough effect; inconclusive means small, poorly fitted or top-dose-only effect, or effect the other way; inactive means flat fitted curve, though single readings scatter; tested in HEK293 cells; further: on the % scale 0 is the no-effect control and ±100 the full control effect; nearly all actives have a fitted effect of over 50% in size; luciferase read-out
SARS PLpro yeast – SARS-CoV PLP inhibition in yeast. S. cerevisiae expressing SARS-CoV PLpro, growth rescue; control for the full effect not named in the record. Potency, µM (highest dose often 32.9 µM), without a hit: at the highest dose activity, positive = growth rescue. hit rate 0.19% among 330,000. AID 485353; active means well fitted rising curve with a large enough effect; inconclusive means small, poorly fitted or top-dose-only effect; inactive means no such curve, though single readings can be large or run the other way; further: 0% is about no effect; nearly all actives have a fitted effect of over 55% in size; growth read by luminescence after 48 h
MARV entry inh – blocks Marburg virus binding to or entry into cells | Marburg virus pseudotyped entry inhibition, cell reporter; control for the full effect not named in the record; about a third of the inactives were read at about 46 µM | Potency, µM (titrated, usually from 37.8 µM), without a hit: top-dose activity change, negative = inhibition, most hits filed as inhibitors | hit rate 1.8% among 300,000 | AID 540276; active = well fitted inhibition curve with a large enough effect; inconclusive = small, poorly fitted or top-dose-only effect, or effect the other way; inactive = flat fitted curve, though single readings scatter; tested in HEK293 cells; about a fifth of its hits are not listed in these tables; further: on the % scale 0 is the no-effect control and ±100 the full control effect; luciferase read-out
Cruzain inh noDet – cruzain (T. cruzi) inhibition without detergent; P25779; purified cruzain, Z-FR-AMC fluorescence, no detergent; hit rate 2.3% among 200,000; Potency, µM, for the others: max response, negative = inhibition, actives largely listed as inhibitors;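 further: plate controls were enzyme without inhibitor for no effect and buffer without enzyme for full effect; nearly all actives have a fitted effect of over 40% in size; top concentration of the series not given in the record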
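Purified cruzain at 1.5 nM, pre-incubated 15 min with compound at room temperature in 100 mM sodium acetate pH 5.5, 5 mM DTT, 0.00005% Triton X-100. Reaction started with 2 uM Z-FR-AMC; AMC fluorescence increase over 60 s gives rate.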
* = called active by the depositor; ? = inconclusive; . = no result given; & = joins results of further samples; [ ] = remark or other dose. Unless noted, the call rests on the fitted dose curve; in most records, active means well fitted curve in the direction sought with a large enough effect; inconclusive means small, poorly fitted or top-dose-only effect, or another doubt; inactive means no such curve, though single readings can be large; an effect the other way counts as inactive or inconclusive. Potency means the concentration at half of the fitted maximal effect.

SMILES	RE007 growth inh	2A StopGo	NS1 inh	Cruzain Triton	Lassa entry inh	SARS PLpro yeast	MARV entry inh	Cruzain inh noDet
Nc1nc(CN2CCN(c3ccc(F)cc3)CC2)nc(N2CCCc3ccccc32)n1	-6%	-23%	-34%	-1.8%	3%	10%	?	-3%
CCc1ccc(NC(=O)CN2C(=O)c3ccccc3Sc3ccc(C(=O)N4CCCC4)cc32)cc1	.	-9%	.	-5.6%	-20%[46.1 µM]	.	.	-8%
COc1ccccc1CCNC(=O)C(=O)NCC(c1cccs1)S(=O)(=O)c1cccs1 (stereo unspecified)	.	?	.	-2.4%	-37%[46.1 µM]	.	.	8%
CN(C)CCCn1c(SCC(=O)N2c3ccccc3Sc3ccccc32)nc2ccccc2c1=O	8%	?	7%	-12%	?	-4%	?	-2%
COC(=O)c1cc(C(=O)OC)cc(N2C(=O)CC(Sc3nc(C)cc(C)n3)C2=O)c1 (stereo unspecified)	-26%	-8%	-7%	-2.0%	13%	-2%	-11%	-4%
O=C(Cc1cccs1)NCc1cccc(Br)c1	7%	64%[activator]	1%	.	.	-4%	.	.
Cc1ccc(CNS(=O)(=O)c2cc3c(cc2C)N(C)CCO3)cc1	5%	107%&74%[activator]	-25%	-1.6%	8%[46.1 µM]	-2%	.	13%
CC(C)NC(=O)c1n[nH]c(=O)c2ccccc12	5%	0%	-5%	3.9%	19%	2%	11%[46.1 µM]	-2%
c1ccc(N2CCN(Cc3cnc(N4CCOCC4)s3)CC2)cc1	1%	0%	.	.	?	2%	-15%[46.1 µM]	.
CC(=O)c1ccc(N2CCN(C(=S)Nc3ccccc3C(F)(F)F)CC2)cc1	13%	?	6%	.	?	-1%	?	.
O=C(CSc1nc2c(cnn2-c2ccccc2)c(=O)[nH]1)N1CCOCC1	-6%	-6%	-1%	-2.8%	15%	7%	4%	-2%
O=C(/C=C/c1cccc(Cl)c1)Nc1ncccn1	26%	31%[activator]	-12%	-3.0%	9%	-16%	28%	1%
C=C/C(C)=C/[C@@]1(C)SC(=O)C(C)=C1O	.	.	-14%	1.0%	.	.	?	6%
COc1ccc(C2C=C(C34CC5CC(CC(C5)C3)C4)NC(=S)N2)cc1 (stereo unspecified)	7%	-17%	-5%	-3.3%	?	-42%	15µM*	25µM*
COc1ccccc1NC(=S)NCc1cccnc1	-14%	-13%	7%	1.1%	20%	4%	3%	0%
Cc1cnc(C(=O)OCC(=O)Nc2cccc(Cl)c2)cn1	2%	.	-3%	-3.4%	30%	2%	1%	-5%
CC1CCN(C(=O)CN(CCc2ccccc2)S(C)(=O)=O)CC1	-3%	7%	?	4.7%	6%	-5%	-29%	-1%
CCCCOc1ccc(OC(=O)c2sc3ncn(Cc4cccc(F)c4)c(=O)c3c2C)cc1	.	-27%	.	-0.3%	26%[46.1 µM]	.	.	10%
C[C@]12CCC3C(CC[C@H]4C[C@H](O)CC[C@]34C)C1CC(=O)[C@@H]2O (stereo partly specified)	18%	-17%	.	.	14%	-2%	25%	.
O=C(CN(Cc1ccccc1Cl)C(=O)c1csnn1)NCc1ccc(F)cc1	4%	-17%	9%	.	-30%	0%	-18%[46.1 µM]	.
O=S(=O)(C/C(=C/CO)S(=O)(=O)c1ccccc1)c1ccccc1	-6%	7.9µM*	14%	3.1%	?	5%	1.8µM*	8%
C=C(CO)C1Cc2cc(C(C)=O)ccc2O1 (stereo unspecified)	-7%	-5%	5%	.	.	0%	.	.
O=C(COc1cccnc1[N+](=O)[O-])N1CCc2ccccc2C1	-17%	15%	.	.	2%[46.1 µM]	1%	2%[46.1 µM]	.
COc1cccc(NC(=O)C2CCCN(S(=O)(=O)c3cccc4nonc34)C2)c1 (stereo unspecified)	-7%	-4%&4%	.	-1.1%	-1%&4%[46.1 µM]	-1%	10%	-6%
OC1(c2ccccc2)CNCCc2ccccc21 (stereo unspecified)	6%	3%	-1%	.	.	1%	.	.

Next compounds.
SMILES	RE007 growth inh	2A StopGo	NS1 inh	Cruzain Triton	Lassa entry inh	SARS PLpro yeast	MARV entry inh	Cruzain inh noDet
CC(C)(C)c1cccc(C2(O)C(=O)c3ccccc3C2=O)c1O	6%	-28%	-3%	.	9%[46.1 µM]	0%	-29%[46.1 µM]	.
CC(=O)Nc1ccc(NC(=O)C(C)Sc2nc3nc(C)cc(C)n3n2)cc1 (stereo unspecified)	0%	-9%	.	.	-3%	9%	?	.
C/C(=N\NC(=O)c1ccc(OC2CCCC2)cc1)c1ccc(O)cc1	-6%	-2%	26%	.	?	?	-9%	.
NNC(=O)Cn1nc(Cc2ccccc2)n(N)c1=O	13%	-10%	.	.	-2%	2%	2%	.
CC(=O)Oc1cccc(/C=c2\sc3nc(-c4ccco4)nn3c2=O)c1	-3%	-19%	-41%	-12%	-27%	-5%	?	?
C=CCn1c(COc2ccc(F)cc2)nnc1SCC(=O)NC1CC1	0%	0%	.	.	0%	-3%	-2%[46.1 µM]	.
Cc1c(C(=O)Nc2ccc(N3CCOCC3)cc2)cccc1[N+](=O)[O-]	-18%	-9%	.	.	4%	-1%	14%[46.1 µM]	.
COc1cc(Cl)c(C)cc1NC(=O)Cn1c(C)c2cnn(-c3ccccc3)c(=O)c2c1C	.	-2%	.	-3.0%	7%[46.1 µM]	.	-2%[46.1 µM]	-5%
O=C(NCC1CCCO1)C(Cc1ccccc1)N1C(=O)C2C3C=CC(C4CC34)C2C1=O (stereo unspecified)	-1%	-11%	-4%	.	17%	0%	?	.
Cc1ccc(C)c(Cc2c(C)nc(C)[nH]c2=O)c1	-6%	9%	10%	0.0%	0%	9%	-2%	0%
Cc1c(-c2ccccc2)c(=O)oc2c(CN3CCCC3)c(O)ccc12	.	12%	.	-3.0%	3%[46.1 µM]	.	.	?
Cc1nn(Cc2c(F)c(F)c(F)c(F)c2F)c(C)c1NC(=O)c1cccc(COc2ccc(Cl)cc2)c1	-17%	-7%	30%	2.8%	2%	4%	?	-13%
CSc1ccc(NC(=O)N2CC(C)OC(C)C2)cc1 (stereo unspecified)	-4%	-11%	-7%	-2.9%	4%	0%	3%	6%
O=C(NCc1ccccn1)C1CCN(S(=O)(=O)c2ccc(Br)cc2)CC1	13%	-21%	8%	.	.	3%	.	.
COc1ccc(S(=O)(=O)N2CCN(C(C)C(=O)Nc3ccc(C(C)C)cc3)CC2)cc1 (stereo unspecified)	15%	0%	.	.	?	-4%	?	.
COc1cc(C(=O)NNC(=O)CNC(=O)C2CCCCC2)ccc1OC(C)C	1%	-11%	.	.	8%[46.1 µM]	3%	7%[46.1 µM]	.
COc1ccc(/C=N/NC(=O)c2ccc(Br)cc2)c(OC)c1	?	26%	.	.	-19%[46.1 µM]	-2%	-3%[46.1 µM]	.
O=S(=O)(NCc1ccccc1)c1cccs1	39%	65%[activator]	8%	11%	.	2%	.	-1%
O=C(NC(=S)N1CCCCC1)c1cccnc1	19%	-21%	-6%	0.4%	3%	3%	15%	-5%
COc1ccc(C(CCc2ccc(C)o2)NC(=O)Nc2ccc(OC)cc2OC)cc1 (stereo unspecified)	9%	7%	-9%	-4.9%	?	3%	-20%	1%
O=C(NNC(=S)Nc1ccccc1)C1CC1	16%	.	-17%	8.4%	1%	0%	21%	2%
COC(=O)c1cc(-c2ccc(S(=O)(=O)N3CCCC(C)C3)cc2)c(C(F)(F)F)s1 (stereo unspecified)	-2%	0%	0%	.	.	2%	.	.
COc1ccccc1C(c1c(O)nc(SC)[nH]c1=O)c1c(O)nc(SC)[nH]c1=O	0%	-14%	.	.	-13%	.	2%[46.1 µM]	.
CCC(NC(=O)c1ccccc1NC(=O)c1ccc(OC)cc1)C(=O)N1CCCC1 (stereo unspecified)	-4%	44%[activator]	-8%	-3.4%	-3%	2%	12%	7%
CCCn1c(CCC(=O)Nc2cccc(C)c2C)nc2cccnc21	.	-9%	.	0.7%	1%[46.1 µM]	.	3%[46.1 µM]	-1%

(continued)
SMILES	RE007 growth inh	2A StopGo	NS1 inh	Cruzain Triton	Lassa entry inh	SARS PLpro yeast	MARV entry inh	Cruzain inh noDet
CC1(C)CC(=O)c2cnc(NC(=O)CCc3ccccc3)nc2C1	3%	15%	-3%	7.4%	?	2%	10%	8%
CCOC(=O)c1ccc(NC(=O)c2nn(CC)cc2Br)cc1	12%	58%[activator]	-32%	-1.6%	?	-19%	-18%	-8%
Cc1nn(C)cc1/C=C1\SC(=S)NC1=O	-4%	-14%	-11%	6.2%	11%	-2%	-4%	-5%
CCCCC(=O)N1c2ccccc2C(C)(c2ccccc2)CC1(C)C (stereo unspecified)	.	-26%	.	-5.9%	?	.	-26%[46.1 µM]	-4%
COc1cccc(N2CCN(C(=O)c3ccc4nc(N5CCCCC5)sc4c3)CC2)c1	11%	25%	-60%	-0.5%	.	-7%	-6%	3%
COC(=O)c1ccc(C(C(=O)NCc2ccccc2)N(Cc2ccco2)C(=O)c2cnccn2)cc1 (stereo unspecified)	4%	.	-6%	2.3%	-19%	6%	-6%&4%	15%
Cc1ccc(CN2CCc3nc(N4CCN(c5ccccc5F)CC4)ncc3C2)s1	.	?	.	3.6%	19%[46.1 µM]	.	.	4%
Cc1ccc(OCc2nc3ccccc3n2Cc2ccccc2Cl)cc1	.	0%	.	-8.0%	-18%[46.1 µM]	.	?	-5%
COc1cc(/C=C/c2ccccc2)cc(OC)c1	-7%	0%	.	.	-2%[46.1 µM]	.	?	.
COc1ccc(CNC2=CC(=O)CC(C)(C)C2)cc1	-13%	5%	4%	1.9%	0%	-1%	-25%	-1%
COc1ccc(Nc2cc(C)nc3nc(C)nn23)c(OC)c1	2%	?	-2%	-3.3%	-1%	12%	-10%	0%
CCOC(=O)C1=C(C)N=C(/N=C/N(C)C)SC1c1ccccc1 (stereo unspecified)	0%	?	-7%	-3.7%	4%	-3%	-15%	1%
C#CCSc1nc2sc3c(c2c(=O)n1-c1cccc(OC)c1)CCN(C(C)=O)C3	.	-12%	.	-9.5%	?	.	1%[46.1 µM]	?
